High-throughput results (PubChem)
H5N1 antiviral – MDCK cell protection from H5N1 avian flu | cytopathic effect, luminescence, 72 h; hits give high values; no value below 0 was filed and about half of the inactive calls have no number; reference of the scale not given here | inhibition, % at 50 µM | 96,000 compounds, 0.07% hits | AID 740, 2007; in the data active = inhibition above about 25%
Starred values were filed as active, the others as inactive; i = inactive. Not all compounds are listed (hit frequency here may not be typical).

SMILES | H5N1 antiviral
CC(NC(=O)/C(=C\c1cccc([N+](=O)[O-])c1)NC(=O)c1ccco1)C(=O)O (configuration not stated) | i
CCOc1ccc(N2C(=O)CC(N3CCC(NC(=O)Nc4ccccc4)CC3)C2=O)cc1 (configuration not stated) | 0.9
O=C1CC(c2ccco2)CC(O)=C1C=NCC1CCNCC1 (configuration not stated) | i
COC(=O)c1cc(C(=O)Nc2cccc(C)n2)cc([N+](=O)[O-])c1 | i
Cn1cccc1Cc1nnc(SCC(=O)NCc2ccco2)n1CCc1ccccc1 | i
COc1ccc(CNc2nc(NCc3ccc(OC)c(OC)c3)n(C(=O)c3cccs3)n2)cc1OC | i
CCOc1ccc(N2CC(C(=O)NCc3cccc(C)c3)CC2=O)cc1 (configuration not stated) | i
OCCN(CC#CC(O)(c1ccccc1)C1CCCC1)CCO (configuration not stated) | 0.1
O=c1c2ccccc2nnn1CSc1nnc(COc2ccc(Cl)cc2)n1Cc1ccco1 | i
CCC(CC)C(=O)N1CC(=O)Nc2ccc(Br)cc2C1c1ccccc1 (configuration not stated) | i
Cc1ccccc1C1CC(=O)NC2=C1C(=O)CCC2 (configuration not stated) | i
COC(=O)[C@H](Cc1ccccc1)NC(=O)NCc1cccs1 | 1.0
O=C1C2C3CCCC3=C3CCCC3C2C(=O)N1c1cccc(Cl)c1 (configuration not stated) | 2.4
COc1ccc(NC(=S)N(CCc2nc3cc(C)c(C)cc3[nH]2)Cc2cccnc2)cc1 | 1.6
CC(C)(C)c1ccc(C(=O)NC(Cc2ccccc2)C(=O)O)cc1 (configuration not stated) | 0.7
COc1cc(N2CCOCC2)ncn1 | i
COc1ccc(NC(=O)CSc2nnc(CCC(=O)Nc3ccc(C)c(Cl)c3)n2C)cc1 | i
CC(=O)c1ccc(NC2c3ncccc3C(=O)N2Cc2ccc(F)cc2)cc1 (configuration not stated) | 2.7
C=CCn1c(N2CCCCCC2)nc2c1c(=O)n(C)c(=O)n2C | 1.2
CN1CCN(C(=O)c2cc3c(C(F)(F)F)nn(C)c3s2)CC1 | 1.4
O=C(O)c1cc(-c2ccccn2)n[nH]1 | 0.6
Cc1ccc(NC(=S)NNC(=O)CCn2cc(C)cn2)cc1 | i
CN(C)c1ccc(C2OC(=O)C3(CCCC3)C(=O)C2(C)C)cc1 (configuration not stated) | i
O=[N+]([O-])c1cc(/C=N/O)ccc1SCc1ccccc1Cl | i
NC(=O)c1sc2nc3c(c(-c4cccs4)c2c1N)CCCCC3 | 3.5
O=C(NCc1cccnc1)C1CCN(S(=O)(=O)c2cccnc2)CC1 | 1.3
Cc1ccc(C(=O)Nc2ccc3nccnc3c2)cc1 | i
O=C(c1ccco1)c1cn(Cc2ccc(Cl)cc2)c2ccccc12 | i
CCOC(=O)c1[nH]c2ccc(Br)cc2c1NC(=O)CCN1CCCCC1 | i
O=C(Cc1ccc(Cl)cc1)NCCS(=O)c1ccc(Cl)cc1 (configuration not stated) | i
CCOC(=O)c1sc(NS(=O)(=O)c2ccc(C)cc2)nc1C | i
CCOc1ccc(OCC)c(NC(=O)CN2CCC(NC(=O)c3cccc(F)c3)CC2)c1 | i
Cc1ccc(-n2c3c(cc(C(=O)NC4CCSC4=O)c2=O)C(=O)CC(C)(C)C3)cc1 (configuration not stated) | 1.3
O=C(CSc1nnc(Cc2ccccc2)o1)N1CCCc2ccccc21 | 0.1
CC(C)CC(=O)NC(NC(=S)Nc1cccc2cccnc12)C(Cl)(Cl)Cl (configuration not stated) | i
C=CCNC(=O)c1onc(CSc2cc(C)ccc2C)c1C(=O)O | i
CCOc1ccccc1N(C(=O)CNC(=O)c1ccco1)C(C(=O)NC1CCCC1)c1cccnc1 (configuration not stated) | 0.7
COc1ccccc1Oc1ccc(S(=O)(=O)N2CCCC2)cc1 | 2.6
Cn1c(O)c(C=NCc2cccs2)c(=O)n(C)c1=O | 3.8
CN(C)CCNc1nc(-c2ccco2)c2c(c1C#N)CC(C)(C)OC2 | i
O=[N+]([O-])c1ccc(OC/C=C2\Oc3ccc([N+](=O)[O-])cc3C2N2CCOCC2)cc1 (configuration not stated) | 0.4
Cc1c(NCc2cc(Cl)cc(Cl)c2O)c(=O)n(-c2ccccc2)n1C | i
COc1ccc(C(C(=O)NC2CCCC2)N2CCc3ccccc32)cc1 (configuration not stated) | i
N#CC1=C2SCN(Cc3ccco3)CN2C(=O)CC1c1c(F)cccc1Cl (configuration not stated) | 1.2
CC(C)(C)NC(=O)C(Cc1ccccc1)NS(=O)(=O)c1ccc2c(c1)CCC(=O)N2 (configuration not stated) | i
Cc1cc(C)nc(SCc2nc3nc(C)cc(C)n3c2Br)n1 | 0.5
O=C(Nc1ccc2c(c1)OCO2)C1CCN(S(=O)(=O)c2cccs2)CC1 | 0.6
CS(=O)(=O)N1CCc2cc(C(=O)O)ccc21 | i
OCCNCCCCOc1ccc(F)cc1 | 1.1
COc1ccc(/C(O)=C2/C(=O)C(=O)N(CCN(C)C)C2c2ccc(C)cc2)cc1Cl (configuration not stated) | i
CC1=CS/C(=C(/C#N)C(=O)N2CCCCC2)N1c1ccccc1 | 1.6
O=C(Cn1cc(C(=O)COc2ccccc2)c2ccccc21)NCc1ccco1 | 1.1
CCCC1(C(=O)O)NC(c2ccccc2O)C2C(=O)N(Cc3ccccc3)C(=O)C21 (configuration not stated) | 0.8
Cc1cc(C)nc(/N=C2\NC(=O)CC(C(=O)O)N2CCc2c[nH]c3ccccc23)n1 (configuration not stated) | 1.0
CCOC(=O)c1ccc(N2C(=O)C(O)=C(C(C)=O)C2c2ccc(O)c(OC)c2)cc1 (configuration not stated) | 1.0
O=C(CCCn1c(=O)oc2ccccc21)N1CCc2ccccc2C1 | 0.9
CC1(C)CC(CC(=O)Nc2ccc([N+](=O)[O-])cc2)C(=O)O1 (configuration not stated) | 1.3
COC(=O)c1ccc(NC(=O)CCn2cccc2)cc1 | 0.2
Cc1ccc(S(=O)(=O)C2(C(=O)N3CCCC(C)C3)CC2)cc1 (configuration not stated) | 0.9
COC(=O)[C@H](CCSC)NC(=O)NCc1ccccc1F | i
Continuation:
SMILES | H5N1 antiviral
O=C(Nc1nc2ccccc2[nH]1)C1CCN(S(=O)(=O)c2cccs2)CC1 | 0.0
Cc1cn(COC/C=C/c2ccccc2)c(=O)[nH]c1=O | 0.8
COc1ccc(C(CC(=O)c2ccccc2)S(=O)(=O)c2ccc(C)cc2)cc1 (configuration not stated) | 0.7
CCSc1nnc(Cn2c(=O)sc3ccccc32)n1-c1ccc(OC)cc1 | 1.0
COCCc1nnc(NC(=O)Cc2ccccc2)s1 | 0.2
CNC(=O)COC(=O)c1ccccc1Oc1ccccc1 | i
CCC(C)NC(=O)CC(NS(=O)(=O)c1ccc(Cl)cc1)c1ccco1 (configuration not stated) | i
COc1cc2c(cc1NC(=O)CCCN1C(=O)CCC1=O)oc1ccccc12 | 0.1
CN1CCN(CCCNC(=O)c2ccc(CS(=O)(=O)c3ccc(Br)cc3)o2)CC1 | i
O=C(CCn1c(=O)oc2ccccc21)Nc1cccc(Cl)c1 | 1.1
CCOC(=O)CNc1nc(OCC#N)nc(N2CCOCC2)n1 | i
CCCc1cc(=O)[nH]c(SCC)n1 | i
COc1ccc(-c2n[nH]c(C(F)(F)F)c2-c2cc3ccccc3o2)c(O)c1 | i
COc1ccc(N2CCN(Cc3cc(=O)oc4ccc(Cl)cc34)CC2)cc1 | i
Cc1ccccc1CSc1nc2c(c(=O)[nH]1)CCC2 | 0.1
COc1ccc(NC(=O)C2CCCN(S(=O)(=O)c3c(C)n[nH]c3C)C2)c(OC)c1 (configuration not stated) | i
C=CCn1c(-c2cccc(Cl)c2)n[nH]c1=S | 1.2
COCCN(CCOC)C(=O)c1sc2nc(-c3ccccc3)cn2c1C | 1.0
CC(=O)c1ccc2c(c1)C1C(Cl)C(Sc3ccccc3[N+](=O)[O-])CC1C(c1ccccc1)N2 (configuration not stated) | i
CCN(CC)S(=O)(=O)c1ccc(-c2nnc(SCC(=O)N3c4ccccc4CC3C)o2)cc1 (configuration not stated) | 0.4
COc1ccc(OC(=O)c2cc3ccccc3o2)cc1 | i
CCCC1c2ccc(C)n2CCN1C(=O)Nc1ccccc1Cl (configuration not stated) | i
O=C(COC(=O)c1cccs1)NCC1CCCO1 (configuration not stated) | i
Cc1cccc(N(CC(=O)Nc2c(C)n(C)n(-c3ccccc3)c2=O)S(C)(=O)=O)c1C | 0.1
O=C(c1ccc2c(c1)N(Cc1ccccc1)CCS2)N1CCCCC1 | 1.9
CCOC(=O)c1sc(NC(=O)c2cccs2)cc1C | i
O=C(NCC(c1cccs1)N1CCOCC1)c1ccc(Cl)s1 (configuration not stated) | i
C=CCn1c(SCC(=O)NCc2ccc3c(c2)OCO3)nc2scc(-c3ccc(F)cc3)c2c1=O | 0.3
Cc1cc(C)n(-c2nnc(C)n2NS(=O)(=O)c2ccc(F)cc2)n1 | 0.9
O=C(COc1ccccc1)NCc1cccs1 | i
CCOC(=O)C1(CCSC)NC(c2ccco2)C2C(=O)N(C)C(=O)C21 (configuration not stated) | 0.1
Cc1ccccc1C(=O)c1cccn1CC(=O)NCc1ccc2c(c1)OCO2 | 0.6
Cc1cccc(-n2c(O)c(C=Nc3c(C)n(C)n(-c4ccccc4)c3=O)c3ccccc3c2=O)n1 | i
CCCCOC(=O)n1ccc(C(=O)Nc2ccccc2OC)n1 | 0.3
Cc1cc(C)cc(OCC(=O)NCCN2CCOCC2)c1 | 1.1
Cc1cc(NC(=O)CSc2nc(C3CCCCC3)nc3ccccc23)no1 | i
Cc1ccc(NC(=O)COC(=O)Cn2c(C)csc2=O)cc1 | i
COc1ccc(CNC(=O)C2CC(=O)N(c3ccc(OCC(=O)N4CCCCC4)cc3)C2)cc1 (configuration not stated) | 0.3
CCc1cccc(NC(=O)CCSCCC(=O)Nc2cccc(CC)c2)c1 | i
O=C(Nc1ccccc1C(=O)NCc1ccco1)NC1CCCCC1 | 2.4
CCc1ccc(OCCCC(=O)O)c(Br)c1 | i
CCSc1nnc(NC(=O)CN(C)S(=O)(=O)c2ccc(F)cc2)s1 | 0.8
CC(C)(C)C(=O)CC(=O)Nc1ccc(Cl)c(N)c1 | i
CCOC(=O)C(NC(=O)c1cccnc1)(Nc1cccc(C)n1)C(F)(F)F (configuration not stated) | 0.9
COc1ccccc1N/N=C/c1c(CO)cnc(C)c1O | i
CC(C)(C)NC(=O)C(=O)NNC(=O)C12CC3CC(CC(C3)C1)C2 | 1.1
O=C(NCCN1C(=O)CSC1=O)c1ccccc1 | 0.3
Cc1cc(NC(=O)CSc2nc3sc4c(c3c(=O)n2C)CCCC4)no1 | 0.3
CC(=Nc1ccccc1)Nc1ccccc1 | i
Cn1c(Cl)c(C(=O)Nc2ccccc2)c2ccccc21 | 0.3
Cc1cc2ccccc2c(=O)n1CC(=O)Nc1ccc2c(c1)OCO2 | i
COC(=O)[C@H](Cc1ccccc1)NC(=O)N1CC(C)OC(C)C1 (some centres not stated) | i
CC(C)OCCCNC(=O)C(=O)NCCCOC(C)C | i
O=C(COc1ccc(S(=O)(=O)N2CCCCC2)cc1)N1CCN(Cc2ccccc2)CC1 | 0.3
COc1ccccc1C(=O)N1CCN(c2cccc(C(F)(F)F)c2)CC1 | i
Cc1cccc(-c2noc(CCc3ccccc3)n2)c1 | i
COc1ccc(/C=C/C(=O)N(CC(C)C)CC(C)C)cc1Br | 1.9
Cc1cc(-c2ccccc2C(=O)NCc2ccccc2)on1 | 2.5
CCNC(=O)CC1SC(=Nc2ccccc2C)N(C)C1=O (configuration not stated) | 0.6
CCOC(=O)c1c(N)sc(C(=O)N(C)C)c1CN1CCOCC1 | i

An excerpt of these results, as tab-separated lines:
SMILES	H5N1 antiviral
CCOC(=O)C(NC(=O)c1cccnc1)(Nc1cccc(C)n1)C(F)(F)F (configuration not stated)	0.9
COc1ccccc1N/N=C/c1c(CO)cnc(C)c1O	i
CC(C)(C)NC(=O)C(=O)NNC(=O)C12CC3CC(CC(C3)C1)C2	1.1
O=C(NCCN1C(=O)CSC1=O)c1ccccc1	0.3
Cc1cc(NC(=O)CSc2nc3sc4c(c3c(=O)n2C)CCCC4)no1	0.3
CC(=Nc1ccccc1)Nc1ccccc1	i
Cn1c(Cl)c(C(=O)Nc2ccccc2)c2ccccc21	0.3
Cc1cc2ccccc2c(=O)n1CC(=O)Nc1ccc2c(c1)OCO2	i
COC(=O)[C@H](Cc1ccccc1)NC(=O)N1CC(C)OC(C)C1 (some centres not stated)	i
CC(C)OCCCNC(=O)C(=O)NCCCOC(C)C	i
O=C(COc1ccc(S(=O)(=O)N2CCCCC2)cc1)N1CCN(Cc2ccccc2)CC1	0.3
COc1ccccc1C(=O)N1CCN(c2cccc(C(F)(F)F)c2)CC1	i
Cc1cccc(-c2noc(CCc3ccccc3)n2)c1	i
COc1ccc(/C=C/C(=O)N(CC(C)C)CC(C)C)cc1Br	1.9
Cc1cc(-c2ccccc2C(=O)NCc2ccccc2)on1	2.5
CCNC(=O)CC1SC(=Nc2ccccc2C)N(C)C1=O (configuration not stated)	0.6
CCOC(=O)c1c(N)sc(C(=O)N(C)C)c1CN1CCOCC1	i

Carrying on:
SMILES | H5N1 antiviral
CCOC(=O)CSc1ccc(-c2nc3ccccc3[nH]2)cn1 | i
CCN(CC)C(=O)Oc1ccc2c(=O)c(-c3ccc(OC)cc3)coc2c1 | 0.6
COc1ccccc1N1CCN(C(=O)C(OC(C)=O)c2ccccc2)CC1 (configuration not stated) | i
CCN(C(=O)c1coc(=O)c2ccccc12)c1cc(OC)ccc1OC | i
CCCc1cc(-c2[nH]ncc2-c2ccc3c(c2)OCCCO3)c(O)cc1O | i
Cc1n[nH]c(=O)nc1NCc1ccccc1Cl | 0.1
CCC(=O)NCCc1cc2cc(C)c(C)cc2[nH]c1=O | 2.2
COc1ccc(-c2nc3ccccc3n2OC(=O)N(C)C)cc1 | 0.3
Cc1ccc(-n2ccc(=O)c(-c3ccnc(SCc4cccc(Cl)c4)n3)n2)cc1 | 1.4
CC(C)OCCCNC(=O)c1ccccc1Oc1ccccc1 | i
